Screening results (PubChem)
MgrA DNA FP = alters Staphylococcus aureus MgrA binding to DNA | fluorescence polarization | inhibition, %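 (about 10 µg/mL by stock and volumes)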 | actives 0.13% (n = 84,000);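 active = above 50% in either of two replicates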;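 also: 0% = protein plus DNA without compound and 100% = DNA alone without protein; higher means less MgrA bound to DNA so lower polarization; one replicate is shown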
S aureus helic = blocks Staphylococcus aureus DNA helicase | AID 485395 | inhibition, %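 (tested at about 80 µM)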 | purified S. aureus helicase, fluorescence unwinding assay; about half of the hits fall short of the stated cut | actives 0.05% (n = 120,000);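 active = both duplicates at 50% or more, or one of them with a favoured structure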;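 also: 0% = mean of negative control wells and 100% = mean of positive control wells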
An asterisk follows results filed as active; · = not tested or not shown; & = joins results of further samples.

SMILES	MgrA DNA FP	S aureus helic
O=C(CSc1nnc(SCC(=O)c2ccc[nH]2)s1)c1ccc[nH]1	·	-22
COc1cc2c3nc4n(c(=O)c3n(CC(=O)N3CCCC3)c2cc1OC)CCS4	-1.4	-2
CCCNC(=O)c1ccc(CS(=O)c2ccc(Cl)cc2)o1 (stereo not drawn)	·	29
N#Cc1cc[n+](CC(=O)c2ccc(NC(=O)c3ccccc3)cc2)cc1	-0.8	8
COc1ccc(-c2n[nH]c(C)c2-c2ccccc2)c(O)c1C	·	19
Cn1c(SCC(=O)NC2CC2)nnc1C(F)(F)F	·	11
CN=C(N=c1ccc(Br)cn1C(=NC)c1cccs1)c1cccs1	·	-6
COc1ccc(C23CC4CC(CC(C(=O)O)(C4)C2)C3)c(F)c1	·	2
N#Cc1cccc(C#N)c1Oc1ccc(N)cc1	-0.7	·
N/C(COc1ccc2nonc2c1)=N\O	-0.8	·
CC(C)[C@H](NC(=O)c1ccco1)C(=O)N(C)Cc1ccc(C(F)(F)F)cc1	·	-1
CCc1ccc(NC(=O)N2CC(C)Sc3ccccc32)cc1 (stereo not drawn)	0.2	-13

Compound profiles, as listed above. Order of screens: MgrA DNA FP | S aureus helic
O=C(CSc1nnc(SCC(=O)c2ccc[nH]2)s1)c1ccc[nH]1 in the list: · | -22
N#Cc1cc[n+](CC(=O)c2ccc(NC(=O)c3ccccc3)cc2)cc1 in the list: -0.8 | 8
COc1ccc(-c2n[nH]c(C)c2-c2ccccc2)c(O)c1C in the list: · | 19
CCCNC(=O)c1ccc(CS(=O)c2ccc(Cl)cc2)o1 (stereo not drawn) in the list: · | 29
CC(C)[C@H](NC(=O)c1ccco1)C(=O)N(C)Cc1ccc(C(F)(F)F)cc1 in the list: · | -1

More compounds:
SMILES	MgrA DNA FP	S aureus helic
O=C(c1ccco1)N1CCN(c2nc3ccccc3c(=O)n2-c2ccccc2)CC1	·	10
O=S(=O)(Cc1ccccc1)c1nc2ccccc2n1Cc1ccc(Br)cc1	4.4	7
CCN(CC)C1CCCCC1NS(=O)(=O)c1ccc(Cl)cc1 (stereo not drawn)	·	15
O=C(O)CN1C(=O)C2CC=CCC2C1=O (stereo not drawn)	·	-28
Cc1c(/C=N/NC(N)=S)c2ccccc2n1C	·	-2
CCOc1ccc2nc(N3CCC(C(=O)NCc4cccnc4)CC3)sc2c1	·	4
CC(=O)Nc1cccc(OCC(=O)N2CCCCC2)c1	·	11
O=C(NC1CC1)c1ccc(Cl)cc1Cl	-1.9	14
O=C(NC1CCCCC1)C1CC(c2c(F)cccc2Cl)=NO1 (stereo not drawn)	·	35
O=C(CNC(=O)C1CCCCC1)Nc1nc2ccccc2s1	-0.3	-25
Cc1[nH]c2ccc(S(N)(=O)=O)cc2c1C	-2.0	5
FC(F)(F)c1ccccc1CNCC1NCCc2ccccc21 (stereo not drawn)	-3.5	4
CCC(C)(C)NC(=O)/C=C/c1cccs1	·	11
O=c1oc2ccccc2cc1-c1nc2c(s1)CCCC2	6.2	0
Cc1ccc2nc(-c3sc4ccccc4c3Cl)oc(=O)c2c1	-2.3	·
CC[C@@]1(O)C(=O)OCc2c1cc1n(c2=O)Cc2cc3c(CN(C)C)c(O)ccc3nc2-1	17	·
Brc1ccc(-c2cnc3ccccc3n2)s1	-0.2	·
CCOC(=O)c1c(N)n[nH]c1C	-1.8	-2
COC(=O)/C=C1\SC(=NC(=O)c2ccc(F)cc2)NC1=O	2.8	12
Cc1cc(Nc2cccc3c2OCO3)c2ccccc2n1	-1.9	·
Cc1ccc(Oc2ncc(C(F)(F)F)cc2Cl)c2c1CCC2	3.3	·
O=C(O)CSc1cn(Cc2ccccc2)c2ccccc12	·	14
CCCC(C(=O)NC1CCCCC1)N1Cc2ccccc2C1=O (stereo not drawn)	·	6
O=C(CCC(=O)NC1CCN(Cc2ccccc2)CC1)NCc1ccco1	0.1	6
CCOC(=O)c1ccc(NC(=O)c2sc(NC(=O)c3cccc(Cl)c3)c(C(=O)OCC)c2C)cc1	-0.2	·
O=C(C1CC(=O)N(c2ccc(F)c(Cl)c2)C1)N1CCCCC1 (stereo not drawn)	4.1	15
Cc1ccc(C2CC(C(F)(F)F)n3nc(C(=O)Nc4c(C)n(C)n(-c5ccccc5)c4=O)c(Cl)c3N2)cc1 (stereo not drawn)	2.5	·
c1ccc(C2=Nc3ccccc3SC(c3ccc4c(c3)OCO4)C2)cc1 (stereo not drawn)	1.7	·
NNC(=O)c1ccc(CN2C(=O)c3cccc4cccc2c34)cc1	·	-4
CCOC(=O)c1nc2ccccc2oc1=O	·	11
COc1ccc2oc(=Nc3ccc(C(F)(F)F)cc3)c(C(=O)NC(C)=O)cc2c1	3.8	·
C/C(=C\C(=O)Nc1ccccc1)N1CCOCC1	0.1	10
COc1ccc(C(=O)NCCc2nnc3ccc(SCC(=O)Nc4cc(C)on4)nn23)cc1	·	1
CSCC(O)Cn1[nH]c(=O)ccc1=O (stereo not drawn)	2.0	·
COc1ccc(-c2[nH]ncc2-c2ccccc2)c(O)c1	·	-6
COc1ccc2cc1Oc1ccc(cc1)C[C@H]1c3c(cc4c(c3Oc3cc5c(cc3OC)CCN(C)[C@@H]5C2)OCO4)CCN1C	1.5	·
CCOC(=O)N1CCN(CC(O)COCCC23CC4CC(CC(C4)C2)C3)CC1 (stereo not drawn)	·	2
CC(=O)Nc1ccc(S(=O)(=O)N=S(C)(C)=O)cc1	·	10
Cc1cccc(NC(=O)c2cccs2)n1	1.1	·
CSc1ncc(C(=O)NCCc2ccccc2)c(C(F)(F)F)n1	·	-6
Cc1ccc(S(=O)(=O)NC(CO)C(=O)O)cc1 (stereo not drawn)	19	-6
CC(C)c1csc2nc3n(c(=O)c12)CCCCC3	-1.1	19
CCCC(=O)Nc1ccc(N)cc1	-0.8	-1
CN(C)C=Nc1nc2ccccc2nc1N1CCOCC1	·	26
O=P(CO)(c1ccc(Cl)cc1)c1ccc(Cl)cc1	-1.7	·
Cc1cccc(N2C(=O)CNC2=S)c1	-0.5	4
COC(=O)Oc1ccc2c(=O)c(-c3ccccc3)coc2c1	1.3	3
CCC1SC(NC(=O)COc2ccc(OC)cc2)=NC1=O (stereo not drawn)	4.9	-1
Nc1c(S(=O)(=O)c2ccccc2)c2nc3ccccc3nc2n1-c1ccc2c(c1)OCO2	·	24
CCCN1C(=O)C(Cc2nc3ccccc3c(=O)n2C)c2ccccc21 (stereo not drawn)	·	10
COC(=O)c1cccc(Cn2nc(C)c(Cl)c2C)c1	·	27
CCN(CC)C(=O)Cn1nnc(-c2ccc(C)cc2)n1	0.1	-16
O=c1[nH]c2ccc(Cl)cc2c(-c2ccccc2)c1NCN1CCOCC1	·	20
O=C(O)C(Sc1nncc(-c2ccccc2)n1)c1ccccc1 (stereo not drawn)	·	1
O=S1(=O)C=C(N2CCOCC2)c2ccccc21	0.2	17
Cc1cc(S(=O)(=O)NCC2CC2)c(C)cc1Cl	2.9	·
O=c1[nH][nH]c(=S)n2nc(-c3ccccc3)cc12	-0.7	9
CC1=C(C(=O)Nc2cc(C(F)(F)F)cc(C(F)(F)F)c2)SCCO1	2.9	·
CC(Cn1cnc2ccccc21)C(=O)N/N=C/c1ccccc1 (stereo not drawn)	·	-17
NS(=O)(=O)c1ccc(Sc2ccccn2)c([N+](=O)[O-])c1	0.0	·

Remaining list, next part.
SMILES	MgrA DNA FP	S aureus helic
O=C(Nc1cccc(Cl)c1)c1nn(-c2ccc(Cl)cc2)c(=O)c2ccccc12	·	17
Cc1[nH]c2ccc(C(=O)O)cc2c1CC(=O)O	5.5	11
CCOC(=O)c1sc2[nH]c(C(C)(C)C)cc(=O)c2c1C	·	13
CC1CCCC(C)N1C(=O)CSc1nc2ccccc2n1CC(=O)NC1CCCC1 (stereo not drawn)	-2.2	3
CCOC(=O)C(Cc1ccc(NC(=O)c2ccccc2)cc1)N1C(=O)c2ccccc2C1=O (stereo not drawn)	-0.7	2
Cc1ccc(-n2c(O)c(C=NCCc3ccco3)c3ccccc3c2=O)cc1	·	2
FC(F)(F)c1ccc(-c2nnc3ccc(NC4CC4)nn23)cc1	3.0	·
O=c1cnc2ccccc2n1CCOc1ccc(Br)cc1	·	-9
COC(OC)c1ccc(C#N)c(SCC(=O)Nc2ccccc2)n1	0.1	·
N/C(=N\O)c1cccc(CSc2ccccn2)c1	-1.4	·
CC(=O)N1CCc2c(sc(NC(=O)Cc3ccccc3)c2C#N)C1	·	-15
CCN1CCc2c(sc3c2C(=O)NC(c2ccc(COc4cccc(C(F)(F)F)c4)o2)N3)C1 (stereo not drawn)	3.5	4
CCOc1cccc(OCCCN(C)Cc2ccccc2)c1	0.7	4
CN(C)c1nc2ccccc2c(=O)s1	-0.9	·
Cc1ccc2c(nc3s/c(=C\c4ccccc4OCc4ccc(Cl)cc4Cl)c(=O)n32)c1C	1.2	·
CC(=O)N1CCN(C(=O)c2ccc(S(=O)(=O)N3CCCc4ccccc43)cc2)CC1	·	-13
COc1cc(/C=C2/SC(=Nc3ccccc3)N(N(C)C)C2=O)cc(Br)c1OC	1.3	-1
O=S(=O)(c1ccccc1)N(c1cccnc1)S(=O)(=O)c1ccccc1	1.9	5
O=C(O)c1cn2ccccc2c1C(=O)O	1.8	·
CC1CCN(CC(O)COc2c(F)cc(Br)cc2F)CC1 (stereo not drawn)	-1.2	-2
O=C(NCCSCc1ccccc1)c1ccccc1	5.1	4
CC1CCN(S(=O)(=O)c2ccc3[nH]cc(C(=O)NC4CCCCCC4)c(=O)c3c2)CC1	·	7
CC(=O)Nc1ccc2c(COC(=O)Cc3coc4cc5c(cc34)CCC5)cc(=O)oc2c1	·	24
Cc1ccc(-c2csc(Nc3ccccc3Cl)n2)cc1	-0.5	·
CCOC(=O)CSc1nnc(-c2ccncc2)n1C	-0.6	·
O=C(Oc1ccc(Br)cc1)C1CCC(N2C(=O)C3C4C=CC(C4)C3C2=O)CC1 (stereo not drawn)	1.6	12
CCN(Cc1ccncc1)C(=S)Nc1ccccc1	-2.5	-13
CCn1cc(CO)c(C)n1	-1.8	6
O=C(c1cccs1)c1cn(CCOc2ccccc2)c2ccccc12	2.9	14
CC(Sc1nnc(-c2cccs2)n1C1CC1)c1nc2ccccc2c(=O)[nH]1 (stereo not drawn)	·	9
CCN(CC)CCNC(=O)COc1ccc(OC)cc1	-0.3&2.6	·
CCCCn1c(N)c(N(C)C(=S)NCCCN2CCOCC2)c(=O)[nH]c1=O	·	-9
O=C(O)/C=C/C(=O)N1CCN(c2ccccc2)CC1	-0.8	-12
Cc1cc(C(=O)COC(=O)/C=C/c2ccco2)c(C)n1C	·	-10
CCC(=O)Nc1ccc(-c2nc3cc(Cl)ccc3o2)cc1	·	9
O=C1CN(C(=O)COc2ccccc2)CCN1	·	28

Single values from above:
Reading of CCOC(=O)CSc1nnc(-c2ccncc2)n1C in MgrA DNA FP: -0.6
Reading of Cc1cc(C(=O)COC(=O)/C=C/c2ccco2)c(C)n1C in S aureus helic: -10
Reading of O=C(Oc1ccc(Br)cc1)C1CCC(N2C(=O)C3C4C=CC(C4)C3C2=O)CC1 (stereo not drawn) in S aureus helic: 12

Next part
SMILES	MgrA DNA FP	S aureus helic
O=C(COc1ccccc1O)OCCO	·	-14
O=C(Nc1cccc(C(F)(F)F)c1)C(Sc1cccc[n+]1[O-])c1ccccc1 (stereo not drawn)	3.0	-7
CCNC(=S)N(C)c1ccc(O)cc1	·	-15
CN1CCN(CCc2nnc3n2CCCCC3)CC1	0.4	2
COC(=O)c1cc2sccc2n1CC(=O)N(C)c1ccccc1	-0.9	14
CN(C)S(=O)(=O)c1ccc2oc3nnc(SCC(N)=O)n3c2c1	·	3
COc1ccc(CC(=O)N(C)Cc2cccc(OC)c2OC)cc1	·	6
Cc1cc(C)cc(NC(=S)NC(=O)C2CC2)c1	0.3	2
O=C1CSC2=NC3=C(CCCC3=C3SCCCS3)C(c3ccccc3)N12 (stereo not drawn)	·	-17
COCC(C)n1c(C)cc(C(=O)COC(=O)c2ccc(C#N)cc2)c1C (stereo not drawn)	·	4
O=C(/C=C/c1ccco1)Nc1ccc(N2CCCC2)cc1	0.0	17
CCN1CCN(Cc2ccc(NC(=O)Nc3ccccc3)cc2)CC1	1.0	8
CCN(CC)S(=O)(=O)c1ccc(-c2ccc(/C=C3/N=C4CCCCCN4C3=O)o2)cc1	·	-142
O=c1ccc(-c2ccc(F)cc2)n[nH]1	-0.3	-3
O=C(c1cc(-c2ccccc2O)on1)N1CCCC1	·	-8
CNC(=O)c1cccc(N2CCCC2=O)c1	·	9
Cc1cc(C(=O)CSc2nnc(C(F)(F)F)n2C)c(C)n1C1CC1	·	-9
Cc1cccc(C(=O)OCC(=O)N(C)C)c1O	·	-3
O=C(CCCC(=O)n1nnc2ccccc21)Oc1ccccc1F	1.3	-16
CC(C)Oc1cccc(NC(=O)c2csnn2)c1	1.9	·
O=C(CSc1nc2ccccc2c(=O)[nH]1)Nc1ccccc1N1CCOCC1	-3.1	1
Cc1ccccc1C(=O)Oc1ccc(-c2csnn2)cc1	-1.4	·
c1ccc(SCCc2ccccn2)cc1	2.0	6
COc1cccc(OCCSc2nc3ccccc3s2)c1	-4.0	15

By substructure: the entries above containing bromine.
SMILES	MgrA DNA FP	S aureus helic
CN=C(N=c1ccc(Br)cn1C(=NC)c1cccs1)c1cccs1	·	-6
O=S(=O)(Cc1ccccc1)c1nc2ccccc2n1Cc1ccc(Br)cc1	4.4	7
Brc1ccc(-c2cnc3ccccc3n2)s1	-0.2	·
O=c1cnc2ccccc2n1CCOc1ccc(Br)cc1	·	-9
COc1cc(/C=C2/SC(=Nc3ccccc3)N(N(C)C)C2=O)cc(Br)c1OC	1.3	-1
CC1CCN(CC(O)COc2c(F)cc(Br)cc2F)CC1 (stereo not drawn)	-1.2	-2
O=C(Oc1ccc(Br)cc1)C1CCC(N2C(=O)C3C4C=CC(C4)C3C2=O)CC1 (stereo not drawn)	1.6	12

Later entries.
SMILES	MgrA DNA FP	S aureus helic
Cc1ccc(S(=O)(=O)/N=C(/N)c2ccccc2)cc1	·	-1
O=S1(=O)CCN(Cc2ccc(F)cc2F)CC1	·	27
COC(=O)CSc1nc(C2CC2)cc(C(F)(F)F)c1C#N	2.6	-14
C/C(N)=C/C(=O)c1ccccc1	0.5	·

A portion of the library; count on the stated rates, not on these rows.
